VDR inhibitor = Inhibitors of the vitamin D receptor (VDR): qHTS. 400,000 compounds, 0.93% hits. Vitamin D3 receptor (Homo sapiens), P11473. AID 504847, 2011. VDR-SRC2-3 peptide fluorescence polarization, 2 h. Potency, µM, for the others: max response, negative = inhibition, usual class: inhibitors; active = well fitted inhibition curve with a large enough effect; inconclusive = small, poorly fitted or top-dose-only effect, or another doubt; inactive = no such curve, though single readings can be large or run the other way; note: series mostly up to about 120 µM
Target sequence (P11473 whole entry, looked up): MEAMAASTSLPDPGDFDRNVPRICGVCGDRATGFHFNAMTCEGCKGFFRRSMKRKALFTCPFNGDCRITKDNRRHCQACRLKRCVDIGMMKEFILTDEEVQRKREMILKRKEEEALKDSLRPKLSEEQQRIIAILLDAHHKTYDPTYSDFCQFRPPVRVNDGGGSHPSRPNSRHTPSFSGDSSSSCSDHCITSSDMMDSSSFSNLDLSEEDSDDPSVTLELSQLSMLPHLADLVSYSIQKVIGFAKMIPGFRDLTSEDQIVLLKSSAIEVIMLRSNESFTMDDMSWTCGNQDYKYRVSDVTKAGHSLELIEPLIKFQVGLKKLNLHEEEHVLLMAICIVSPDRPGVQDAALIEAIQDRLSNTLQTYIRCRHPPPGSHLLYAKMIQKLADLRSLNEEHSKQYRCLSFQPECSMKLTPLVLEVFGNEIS
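Fluorescence polarization assay measuring small-molecule disruption of VDR binding to the coregulator peptide SRC2-3. Compounds were pin-transferred (23 nl) into the reagent mix and incubated 2 h at room temperature before reading.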
* = called active by the depositor; u = inconclusive; & = joins results of further samples. % is set by controls: 0 for no effect and ±100 for the full control effect; potency is the fitted concentration of half-maximal effect. Not all compounds are listed. The share of hits here may be higher or lower than overall.

SMILES	VDR inhibitor
COCCCn1c(C)nc2c(c1=O)c1nc3ccccc3nc1n2CCc1ccccc1	7.6%
Cn1cncc1C(=O)c1ccccc1	2.0%
O=C(CCn1c(=O)c2cccn2c2ccc(F)cc21)NCCc1ccccc1	-5.1%&5.5%
O=C(CSC(=S)N1CCCC1)c1ccccc1	-0.6%
CCCN(CCC)S(=O)(=O)c1ccc(C(=O)NCc2ccco2)cc1	-12.1%
CCCn1c(CN2CCN(C(=O)OCC)CC2)nc2cc(NC(=O)C(C)C)ccc21	7.3%
COc1ccc2c3c([nH]c2c1)C1CC2C(CC(O)C(OC)C2C(=O)O)CN1CC3 (stereo not drawn)	-14.9%
Cc1ccc(Oc2ccc(-c3nc(N)nc(N)n3)cc2)cc1	-9.0%
O=C(CN1C(=O)CSC1=O)NC1CCCCC1	4.3%
CC(OC(=O)C1CCN(S(=O)(=O)c2ccc(Cl)cc2)CC1)C(=O)N1CCc2ccccc21 (stereo not drawn)	4.4%
NC(=O)c1cc(S(=O)(=O)N2CCN(c3cccc(Cl)c3)CC2)cs1	24.4%
Cc1cccc2nnc(-c3ccccc3)n12	-1.6%
Cc1c([N+](=O)[O-])cc(C(=O)Nc2ccc(Cc3ccncc3)cc2)cc1[N+](=O)[O-]	-11.3%
COc1cc(NC(=O)CCn2cnc3ccccc3c2=O)cc(OC)c1	-10.6%
CCOC(=O)C1=C2c3ccc4ccccc4c3CC(C)(C)N2C(=O)C1=O	-19.7%
Cc1ccc(Sc2cc(C(F)(F)F)nc(N(C)C)n2)cc1	-2.5%
Cc1cccc(-c2cc(C(=O)Nc3ccc4c(c3)OCCO4)c3ccccc3n2)c1	7.3%
NC(=O)c1cc(-c2ccccc2)nc(N2CCOCC2)n1	6.9%
O=c1oc2c(CN3CCOCC3)c(O)c(Cl)cc2c2c1CCCC2	-13.9%
O=C(c1cc(-c2ccc(Cl)cc2)on1)N(Cc1ccc(F)cc1)Cc1ccco1	13.7%
CC1=C(C(=O)OCc2ccccc2)C(c2ccc(C(F)(F)F)cc2)NC(=O)N1CCCCCC(=O)O (stereo not drawn)	u
Cc1ccc(C)c(N2CCN(C(=O)C3CCN(C(=O)c4cc5sccc5n4C)CC3)CC2)c1	17.2%
CCC(C)NC(=O)C1CCC(=O)N1Cc1ccc(C)cc1 (stereo not drawn)	-8.5%
COc1cccc(Nc2nnc(SCC3CCCCO3)s2)c1 (stereo not drawn)	1.6%
CCOC(=O)c1c2c(c(=S)n(-c3ccccc3)c1N)CCC2	-3.8%
CC1Cc2nc(SCC(=O)Nc3ccc(F)cc3)n(C)c(=O)c2S1 (stereo not drawn)	-5.4%
Fc1ccc(-n2nnc(-c3nccs3)n2)cc1	-11.1%
CC(C)N1C(=O)CSC1c1ccc(Br)cc1 (stereo not drawn)	-4.5%
CC1CN(S(=O)(=O)c2cccc(C(=O)OCC(=O)N3CCCCCC3)c2)CC(C)O1 (stereo not drawn)	-14.2%
COC(=O)c1ccc(Nc2cc(C)nc3ccccc23)cc1	-2.2%

Structures from the list above with a thiophene ring, fused or not (2):
SMILES	VDR inhibitor
NC(=O)c1cc(S(=O)(=O)N2CCN(c3cccc(Cl)c3)CC2)cs1	24.4%
Cc1ccc(C)c(N2CCN(C(=O)C3CCN(C(=O)c4cc5sccc5n4C)CC3)CC2)c1	17.2%

Additional results:
SMILES	VDR inhibitor
COc1ccc2c(c1OC)C(=O)N1C2SC[C@H]1C(=O)NC1CCCCC1 (stereo partly drawn)	-21.1%
CCOCCCNC(=O)COc1ccc(OC)cc1	-12.5%
CCOC(=O)c1ccccc1NC(=O)CSc1nnc(Cc2cccn2C)n1-c1ccc(F)cc1	-6.0%
Cc1cc(C)c(S(=O)(=O)N2CCOC2CNC(=O)C(=O)NCCc2ccc(S(N)(=O)=O)cc2)c(C)c1 (stereo not drawn)	-17.9%
O=S(=O)(c1ccc(Br)cc1)N1CCCN(Cc2cccc(F)c2)CC1	-14.8%
CC(C)(C)OC(=O)NC1CONC1=O (stereo not drawn)	19.7%
CN(CC(=O)Nc1cccc(F)c1)C(=O)c1ccccc1-n1cnnn1	7.8%
O=C(N/N=C/c1ccc(-c2ccccc2Cl)o1)c1ccccc1	-17.9%
CCCCn1c(SCC(=O)Nc2cc(C(F)(F)F)ccc2Cl)nnc1C(CC)N(C)C (stereo not drawn)	-15.4%
Cc1c(C(=O)Nc2nc3ccccc3[nH]2)oc2ccccc12	4.9%

A draw from above in order of heavy-atom count, descending:
SMILES	VDR inhibitor
Cc1ccc(C)c(N2CCN(C(=O)C3CCN(C(=O)c4cc5sccc5n4C)CC3)CC2)c1	17.2%
CCCCn1c(SCC(=O)Nc2cc(C(F)(F)F)ccc2Cl)nnc1C(CC)N(C)C (stereo not drawn)	-15.4%
Cn1cncc1C(=O)c1ccccc1	2.0%

Retrieved one by one from above, 2 records:
SMILES	VDR inhibitor
Cc1cc(C)c(S(=O)(=O)N2CCOC2CNC(=O)C(=O)NCCc2ccc(S(N)(=O)=O)cc2)c(C)c1 (stereo not drawn)	-17.9%
CC(C)(C)OC(=O)NC1CONC1=O (stereo not drawn)	19.7%

Next section:
SMILES	VDR inhibitor
c1ccc(Oc2cccc(OCCn3cncn3)c2)cc1	-1.2%
Cc1cc(NC(=O)C(Cl)Cl)cc2c1OCO2	-6.0%
O=C(COC(=O)C1(c2ccccc2F)CCCC1)NCc1ccc2c(c1)OCO2	-21.0%
Cc1ccccc1NC(=O)c1c(NC(=O)c2ccccc2)sc2c1CCC2	-6.7%
CCCNC(=O)c1ccc(N2CCC3(CC2)CC(c2ccccc2)=NO3)c(NC(=O)c2ccccc2)c1	3.1%
CC(=O)Nc1cccc(-c2csc(Nc3cccc(C)n3)n2)c1	3.1%
CCc1ccc(S(=O)(=O)Nc2cccc(-c3ccc(OC)nn3)c2)s1	8.2%
O=C(c1ccc(Cn2c(=S)[nH]c3ccc(N4CCOCC4)cc3c2=O)cc1)N1CCN(c2ccc(F)cc2)CC1	-22.8%
Cc1cccc(C(=O)Nc2ccc(N3CCN(c4ccc(C(F)(F)F)cn4)CC3)nc2)c1	-15.9%
CC1CC[C@@]2(OC1)O[C@H]1CC3[C@@H]4C[C@@H](O)[C@@]5(O)C[C@@H](O)[C@H](O)C[C@]5(C)[C@H]4CC[C@]3(C)[C@H]1[C@@H]2C (stereo partly drawn)	-10.5%
CC(C)c1[nH]nc2c1C(c1ccco1)C(C#N)=C(N)O2 (stereo not drawn)	-26.9%
O=C(N/N=C/c1cc([N+](=O)[O-])ccc1O)C(O)(c1ccccc1)c1ccccc1	-6.8%
N#CC1CCCc2c1[nH]c1ccc([N+](=O)[O-])cc21 (stereo not drawn)	-6.5%
Cc1c(NC(=O)Nc2ccc(C#N)cc2)c(=O)n(-c2ccccc2)n1C	-5.0%&-14.6%
O=C1Nc2ccc(Br)cc2C1Cc1ccccc1F (stereo not drawn)	10.3%
COc1ccc(C2Nc3ccccc3C(=O)N2c2ccccc2)cc1COc1ccc(NC(C)=O)cc1 (stereo not drawn)	-13.8%
c1ccc(C2c3[nH]c4ccccc4c3CCN2Cc2cccn2-c2ccccn2)nc1 (stereo not drawn)	-2.2%
COc1ccc(N(CC(=O)N2CCN(Cc3ccccc3)CC2)S(C)(=O)=O)c(OC)c1	6.5%
CSCC[C@H](NC(=O)c1cc([N+](=O)[O-])ccc1Cl)c1nc2ccccc2[nH]1	7.2%
CCCC(C)NC(=S)Nc1cc(C)cc(C)c1 (stereo not drawn)	1.5%
COC1OC2COC(c3ccccc3)OC2C(OC(=O)c2ccccc2)C1OC(=O)c1ccccc1 (stereo not drawn)	10.6%
CCCn1c(=O)c2sccc2n2c(CCCC(=O)N3CCN(c4ccccc4OC)CC3)nnc12	-18.5%
N#Cc1cnn2cc(CCN3CCOCC3)c(-c3ccc(F)cc3)nc12	4.7%
CC(Oc1ccc(Cl)cc1)C(=O)NCC1CCCO1 (stereo not drawn)	0.1%
Cc1ccc(-n2nc(CO)c(C(=O)NCCC(C)C)n2)cc1C	-11.9%
CCCCN(C(=O)c1cc(CC)c(C)s1)c1c(N)n(CCC)c(=O)[nH]c1=O	-7.6%
O=C(O)C(Cc1cc2ccccc2[nH]1)N1C(=O)C2CC=C(Cl)CC2C1=O (stereo not drawn)	-8.2%
COC(=O)c1cc(S(=O)(=O)N2CCN(c3cccc(C)c3)C(C)C2)cn1C (stereo not drawn)	10.9%
Cn1c(-c2ccsc2)c(-c2cccs2)c2cc(-c3ccc4[nH]ccc4c3)ccc21	-6.9%
O=C(Nc1ccc2nc(-c3cccs3)[nH]c2c1)c1cccs1	-11.3%
CC1=[N+]([O-])C(C)(C)CC(C)(C)c2ccccc21	-7.0%
CSc1ccc(CCNC(=O)c2ccc(CS(=O)(=O)c3ccc(Br)cc3)o2)cc1	-1.0%
c1ccc(-c2ccccc2OCc2nnc3n2CCC3)cc1	-4.7%
OCC1(Cc2ccccc2)CCCN(Cc2c[nH]c3ccccc23)C1 (stereo not drawn)	0.8%
CCCCn1c(N)c(N(CC)C(=O)c2ccc3c(c2)S(=O)(=O)c2ccccc2C3=O)c(=O)[nH]c1=O	-2.1%
O=C(CSc1ncnc2c1cnn2-c1cccc(Cl)c1)NCC1CCCO1 (stereo not drawn)	6.4%
COc1cccc(Cn2cc(N)cn2)c1	10.7%
N#Cc1ccccc1-c1ccc2ncnc(NCc3cccnc3)c2c1	u
COCCNS(=O)(=O)c1cc(OC)c(C)cc1C	-12.5%
Cc1ccc(NC(=O)CN(C)C(=S)NC2CC2)cc1	7.3%
Cc1cnc(C(=O)OCC(=O)Nc2ccc(Br)cc2F)cn1	-7.9%
COc1cccc(CN(C)S(=O)(=O)c2c(C)noc2C)c1OC	-10.5%
CCOC(=O)C1(CC2CCCCO2)CCN(C(=O)Nc2ccc3c(c2)OCO3)CC1 (stereo not drawn)	5.6%
CCOC(=O)NN1C(=O)c2ccccc2NC1c1ccccc1 (stereo not drawn)	-6.3%
CC(=O)N1CCN(CC(c2ccccc2)c2ccccc2)CC1	-3.4%
CCOc1cccc(NC(=O)C2CC(=O)N(C)C(=Nc3ccc(F)cc3)S2)c1 (stereo not drawn)	2.2%
N#Cc1ccc(CSc2nc3c(c(=O)[nH]2)CCC3)cc1	5.9%
CC(C)OC(=O)CSc1nnc(CNc2ccc(Cl)cc2)n1Cc1ccccc1	0.0%
Cc1cc(NC(=O)COC(=O)C2CCN(C(=O)c3ccc(Cl)cc3)CC2)no1	8.6%
Cc1cc(NC(=O)c2ccc(S(=O)(=O)Nc3ccccc3)cc2)no1	-8.0%

The listing continues.
SMILES	VDR inhibitor
O=C(O)CCCNS(=O)(=O)c1ccc(NCc2ccccc2)c(C(=O)O)c1	11.3%
O=C(Cn1c(=O)oc2ccccc21)N1CCN(S(=O)(=O)c2ccccc2)CC1	19.0%
COc1ccc(C(=O)NCCc2nnc(SCC(=O)Nc3ccccc3C(C)C)n2C)cc1	-0.2%
CN1CCN(c2ccc(-c3cccc(NC(=O)COc4ccc(Cl)cc4Cl)c3)nn2)CC1	-8.1%
CN(C)CCCN(Cc1cc2cc3c(cc2[nH]c1=O)OCO3)C(=S)Nc1ccccc1	-7.5%
CC(C)(C)NC(=O)COC(=O)c1ccccc1NC(=O)c1ccco1	-12.6%
CCCCn1c(N)c(N(CC(C)C)C(=O)CCCn2c(=O)oc3ccccc32)c(=O)[nH]c1=O	-2.1%
O=C(Nc1c2c(nn1-c1cccc(Cl)c1)CS(=O)(=O)C2)c1ccco1	-4.6%
Cn1cccc1CC(=O)NNC(=S)Nc1ccc(Cl)cc1Cl	-6.4%
CCc1ccc(S(=O)(=O)c2nnn3c2nc(Nc2cc(OC)ccc2OC)c2sccc23)cc1	2.6%
Cc1ccc(NC(=O)COc2ccc(Br)cc2CO)cc1	5.1%
Cc1cccc(OCc2ccc(-c3nc(C#N)c(N4CCN(c5ccccc5)CC4)o3)o2)c1	-0.3%
Cc1c(C(=O)OCC(=O)N2CCCC(C)C2)oc2ccccc12 (stereo not drawn)	-7.5%
COc1cc(/C=N/S(=O)(=O)CCc2ccccc2)cc(OC)c1O	-2.8%
CC(C)(C)C(=O)CN1CCN(C2c3ccccc3-c3ccccc32)CC1	-2.1%
O=C(Cc1ccccc1)NCC(=O)N/N=C/c1ccc(C(=O)O)cc1	4.5%
COc1ccc(-c2cc(-c3ccccc3)nc(SCC(=O)Nc3ncc(C)s3)c2C#N)cc1	-7.6%
Cc1nc2c(C(=O)NCc3ccccc3Cl)cnn2c(C)c1Cc1ccccc1	11.5%
C/C(=N\NC(N)=S)c1ccc(-n2ccnc2)cc1	3.5%
O=C(Cn1cnc2c(OCc3ccccc3)ncnc21)NCc1nc2ccccc2[nH]1	79.4µM*
CCOC(=O)N1CCN(C(=O)COC(=O)C2CCN(S(=O)(=O)c3ccc(C)c(C)c3)CC2)CC1	-10.5%
O=C(NCC(c1cccnc1)N1CCN(c2ccccc2)CC1)c1ccco1 (stereo not drawn)	1.4%
COC(=O)c1cccc(COC(=O)c2ccc(CS(=O)(=O)c3ccc(C)cc3)cc2)c1	15.3%
CC1(C)CC(=O)C2=C(C1)N(c1ccccc1)C(=O)C2(O)C(F)(F)F (stereo not drawn)	1.6%
CC(C)(C)OC(=O)N1CCC(c2c(C(=O)N3CCN(c4ccc(Cl)cc4)CC3)cnn2-c2ccc(F)cc2F)CC1	3.4%
Cc1oc2cc(O)ccc2c(=O)c1Oc1ccccc1	-9.9%
NNCCc1ccccc1	0.7%&-2.7%&1.9%&-5.4%
N#C/C(=C\c1c(N2CCC(C(N)=O)CC2)nc2ccccn2c1=O)S(=O)(=O)c1ccccc1	-1.0%
CCSc1ncc(/C=N/Nc2ccc(Cl)cc2)n1C	-9.4%
Fc1ccc(C2NC(=S)NC3=C2N2CCC3CC2)cc1 (stereo not drawn)	-9.5%
COc1cc2c(cc1NC(=O)C(C)OC(=O)C1CC(=O)N(Cc3ccco3)C1)oc1ccccc12 (stereo not drawn)	3.1%
COc1ccc(C2=NN(C(=O)COc3ncnc4ccccc34)C(c3ccco3)C2)cc1 (stereo not drawn)	6.8%
CN(CCOc1ccccc1)C(=O)c1ccc2c(=O)n3c(nc2c1)CCC3	9.8%
